ugtP null kill – compounds lethal to S. aureus RN4220 ugtP deletion mutant; OD600 growth, 16 h; some inactives read as strong as hits; growth inhibition, % (no concentration beside the values); 330,000 compounds, 0.54% hits; AID 1259309;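 active = z-score under -3 and OD600 up to 0.15 on both plates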;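 note: plate controls were untreated wells for no effect and antibiotic for full effect; wells of about 80 µL received 100 nL stock; the first replicate is given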
Mtb hypoxia inh – Mtb hypoxia fluorescent reporter inhibition; M. tuberculosis hypoxia-regulated fluorescent reporter, fluorescence; 300,000 compounds, 0.1% hits; fluorescence inhibition, % (concentration not given with the values); AID 1159583;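 active = 35 to 45% if threefold the growth effect, above 45% if 1.5-fold the growth effect; inactive = the rest, general growth blockers included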;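 note: wells of about 50 µL received 100 nL stock; 0% = vehicle wells and 100% = reference inhibitor wells; whole bacteria with a GFP reporter of the hypoxia response; strong numbers were not always called active; many hits fall short of the cut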
Sa RN4220 lethal – S. aureus RN4220 growth inhibition | OD600, 16 h | inhibition, % (test concentration not listed) | 330,000 compounds, 0.33% hits;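 active = z-score of -3 or lower and OD600 up to 0.18 on both plates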;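 note: plate controls were untreated cells for no effect and reference antibiotic for full effect; stock transfer was 100 nL into about 80 µL; one replicate is shown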
Bead autofluor – counter-screen for toxin protease inhibitors: compound fluorescence | compound autofluorescence counterscreen, microsphere flow cytometry; stronger effect = higher value | fluorescence intensity (no concentration beside the values) | 360,000 compounds, 3.1% hits;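 active = at least 3 SD above the mean of all compounds, about 16000 in these data; inconclusive = too few beads counted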;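 note: 100 nL of 1 mM stock went into each well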
PrP 5UTR inh – inhibition of PrP 5' UTR reporter expression; cell-based PrP 5' UTR mRNA reporter, plate reader; inhibition, % (test concentration not listed); 340,000 compounds, 0.35% hits; AID 488862;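 active = every replicate at 50% or more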;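 note: 0 = median of the neutral control wells; tested in H4 reporter cells; numbers are from one replicate; inactives centre near -14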
BJeLR lethal – BJeLR cell viability loss; 300,000 compounds, 0.17% hits; inhibition, % (test concentration not listed); AID 1554; BJeLR (HRASV12) viability, CellTiter-Glo ATP luminescence, 48 h; reference of the scale not given here;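 active = replicate mean above 50%; inconclusive = above 50% but judged a plate artefact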;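 note: 50 nL library stock added to about 25 µL; numbers are from one replicate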
Mtb hypoxia inh growth – further read-out of Mtb hypoxia inh, marked with its call; growth inhibition, %; measured here: M. tuberculosis growth (absorbance);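 0% = vehicle and 100% = reference antibiotic; read after six days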
Active calls of the source: *; ? = inconclusive; / = not tested or not shown; & = joins results of further samples.

The opening 2 records, ahead of the listing:
SMILES	ugtP null kill	Mtb hypoxia inh	Mtb hypoxia inh growth	Sa RN4220 lethal	Bead autofluor	PrP 5UTR inh	BJeLR lethal
CCCCCC1CC(=NO)C=C(C)C1C(=O)OC (stereo unspecified)	4	9	7	4.0	/	/	/
CC(C)OC(=O)c1ccc(Cn2nnc3ccccc3c2=O)cc1	18	7	14	-0.1	20849*	-28	-11

The whole of this part, repeating the preview:
SMILES	ugtP null kill	Mtb hypoxia inh	Mtb hypoxia inh growth	Sa RN4220 lethal	Bead autofluor	PrP 5UTR inh	BJeLR lethal
CCCCCC1CC(=NO)C=C(C)C1C(=O)OC (stereo unspecified)	4	9	7	4.0	/	/	/
CC(C)OC(=O)c1ccc(Cn2nnc3ccccc3c2=O)cc1	18	7	14	-0.1	20849*	-28	-11
COc1ccc(Oc2ccc(/C=C/C(=O)c3cccc(OC)c3)cc2[N+](=O)[O-])cc1	/	/	/	/	10663	-24	10
COc1ccc(-c2nc3ccc(C)cc3c(=O)o2)cc1OC	3	19	3	5.0	4310	-43	-3
COc1cccc(C=NNC(=O)CNC(=O)CCc2ccccc2)c1O	7	0	5	2.9	/	/	/
CC(C)NC(=O)c1ccc(N2CCOCC2)nc1	5	/	/	0.3	3887	1	0
Cc1nn(C(=O)c2cccs2)c(N)c1-c1ccccc1	-5	0	9	-9.0	5346	-52	-5
CCc1ccc(NC(=O)CC(C)=NNC(=O)COc2ccccc2C)cc1	-1	0	-2	3.7	/	/	/
COc1ccccc1S(=O)(=O)Cc1ccc(C(=O)NCCN2CCCC2)o1	4	4	6	0.9	22371*	-26	3
COc1ccccc1-c1cc(C(=O)NCc2cccs2)no1	2	5	8	5.4	11182	-44	9
CC1=CC(=C(C#N)C#N)C=C(C)N1CCC(C)C	9	-1	9	0.8	3098	-13	-6
COc1ccccc1CC(NC(C)=O)C(=O)NC1CCN(c2nnnn2-c2ccccc2)CC1 (stereo unspecified)	3	/	/	1.5	5025	-12	6
CN(C)c1ccc(NC(=O)CN2CCC(NC(=O)C3CCCCC3)CC2)cc1	6	2	2	-0.8	2425	-9	6
Cc1ccc(O)c(C2=NOC(O)(C(F)(F)C(F)F)C2)c1 (stereo unspecified)	-5	17	2	11	7975	0	11
OCCOc1nnnn1-c1ccccc1	-3	0	3	-25	2414	-17	-10
Cc1[nH]n(-c2ccccc2)c(=O)c1C(c1ccccc1[N+](=O)[O-])C(C#N)C#N (stereo unspecified)	7	5	0	3.1	3464	-8	-1
Cc1ccc(C(=O)COC(=O)CCC(=O)Nc2ccccc2Cl)cc1[N+](=O)[O-]	0	1	7	1.3	2391	-14	8
COc1ccc(NC(=O)CN(C)C(=O)CNC(=O)c2ccc(C)s2)cc1	0	5	2	-2.8	?	-12	-10
COC(=O)c1ccc(C(NC(=O)OCc2ccccc2)C(C)=CC(C)C(=O)NCc2ccc(OC)c(OC)c2)cc1 (stereo unspecified)	1	4	4	1.5	/	/	/
CCOc1ccc(N(CC(=O)NC2CCCCC2)S(=O)(=O)c2ccc(C)cc2)cc1	3	6	13	1.9	3598	-18	-2
O=C(O)c1ccc(CS(=O)(=O)c2c(Cl)cccc2Cl)o1	-9	9	8	2.1	3700	-8	7
CC(=O)Nc1c(C)ccc([N+](=O)[O-])c1C	2	12	2	-0.5	2980	-21	/
CCN(CC)CCOC(=O)c1ccc(NC(=O)CCCN2C(=O)/C(=C/c3cccs3)SC2=S)cc1	-6	5	10	-1.4	6282	14	8
COc1ccc(C(C)(C)C)cc1NC(=O)c1cccc(S(=O)(=O)N2CCN(C(C)=O)CC2)c1	/	/	/	/	3612	-4	-12
O=C1NC(c2cc(Cl)cc([N+](=O)[O-])c2O)Nc2ccccc21 (stereo unspecified)	22	/	/	12	6257	-16	0
COc1ccc(-c2cc(=O)oc3c(C)c(OC(C)C(=O)N4C[C@H]5C[C@@H](C4)c4cccc(=O)n4C5)ccc23)cc1 (stereo partly specified)	10	/	/	2.6	5155	-17	0
O=C(Nc1nnc(SCc2ccccc2Cl)s1)C1COc2ccccc2O1 (stereo unspecified)	28	2	4	17	3752	7	2
COC(=O)c1cn(C(=O)c2cccc(Br)c2)c2ccccc12	6	-2	-14	4.3	3750	-22	-10
CCCc1nc2c(ccc3ccccc32)cc1CC	83*	4	4	-0.7	3775	-8	0
O=C(COc1ccccc1Cl)Nc1nc(-c2cccs2)cs1	-5	0	7	7.2	3202	-18	0

Full records as entered above. Screens in order: ugtP null kill, Mtb hypoxia inh, Mtb hypoxia inh growth, Sa RN4220 lethal, Bead autofluor, PrP 5UTR inh, BJeLR lethal
`COC(=O)c1ccc(C(NC(=O)OCc2ccccc2)C(C)=CC(C)C(=O)NCc2ccc(OC)c(OC)c2)cc1` (stereo unspecified) is entered as 1, 4, 4, 1.5, /, /, /
`O=C(Nc1nnc(SCc2ccccc2Cl)s1)C1COc2ccccc2O1` (stereo unspecified) is entered as 28, 2, 4, 17, 3752, 7, 2
`O=C(COc1ccccc1Cl)Nc1nc(-c2cccs2)cs1` is entered as -5, 0, 7, 7.2, 3202, -18, 0
`COC(=O)c1cn(C(=O)c2cccc(Br)c2)c2ccccc12` is entered as 6, -2, -14, 4.3, 3750, -22, -10
`CCCc1nc2c(ccc3ccccc32)cc1CC` is entered as 83*, 4, 4, -0.7, 3775, -8, 0

Next structures
SMILES	ugtP null kill	Mtb hypoxia inh	Mtb hypoxia inh growth	Sa RN4220 lethal	Bead autofluor	PrP 5UTR inh	BJeLR lethal
O=C(CSc1ccc(-c2ccccc2)nn1)N1CCCCC1	5	18	5	3.4	4231	-25	4
CC(OC(=O)/C=C/c1ccccc1)C(=O)Nc1ccc(C(N)=O)cc1 (stereo unspecified)	-1	4	-1	0.6	8862	4	/
COc1ccc(OC)c(NC(=O)c2ccc(-c3csc(C)n3)cc2)c1	6	-1	5	12	4141	-22	-5
COCCNC(=O)c1c[nH]c2ccc(OC)cc2c1=O	-7	0	-2	-1.6	3947	-16	1
O=Cc1c[nH]c2ccc(OCc3ccccc3)cc12	0	1	2	1.1	?	-27	/
CC(C)Nc1nnc(SCC(=O)c2c(N)n(Cc3ccccc3)c(=O)n(C)c2=O)s1	-3	/	/	1.3	2058	60*	-3
CC(CCN1CCN(CCO)CC1)c1ccccc1 (stereo unspecified)	7	2	5	6.0	4127	-32	2
CCOC(=O)c1cnc(SCC(=O)Nc2sc(C)c(C)c2C#N)nc1N	-8	-2	9	0.5	4587	-4	1
COc1ccccc1NS(=O)(=O)c1cccc(NC(=O)C2CC2)c1	3	3	0	3.0	4514	/	/
NC(=O)COC(=O)c1ccc2c(c1)S(=O)(=O)N=C1CCCCCN12	-3	5	4	3.6	7878	-37	-3
C[C@]12c3[nH]c4ccccc4c3CCN1C(=O)C(CC(=O)NCCCn1ccnc1)C[C@@H]2C(=O)N1CCOCC1 (stereo partly specified)	6	3	4	1.3	3957	-11	/
O=C(O)C1CCN(S(=O)(=O)Cc2ccccc2)CC1	-1	-1	-13	-0.9	3767	-39	3
O=c1c2ccccc2nc(/C=C/c2ccccc2)n1-c1ccc(O)cc1	4	18	27	29	3440	-20	2
CC(OC(=O)c1nn(C)c(=O)c2ccccc12)C(=O)Nc1ccc(S(N)(=O)=O)cc1 (stereo unspecified)	-2	-7	-2	-3.2	4725	-22	1
Oc1cccc(C=NN2CCN(C3c4ccccc4-c4ccccc43)CC2)c1	9	-13	6	-5.4	/	/	/
CN1CCN(c2ccc([N+](=O)[O-])cc2C(=O)Nc2ccccc2)CC1	-6	-4	-5	3.7	3519	8	-9
CCC(C)=NNc1nc2sc3c(c2c(=O)[nH]1)CC(C)(C)OC3	16	-6	15	12	/	/	/
O=C(CNC(=O)c1ccccc1F)OCC(=O)c1c[nH]c2ccccc12	-1	1	8	10	/	5	/
Cc1ccc(C(=O)NC(=Cc2cccs2)C(=O)NCCCn2ccnc2)cc1C	9	-1	5	2.9	/	/	/
Cc1cc(C)c(C(=O)N2CCCC(CNC(=O)C3(c4ccc(Cl)cc4)CC3)C2)c(=O)[nH]1 (stereo unspecified)	0	8	-2	-0.4	4449	-12	-4
CCN(CC)CCN(CC(=O)Nc1c(C)cc(C)cc1C)C(=O)c1ccccc1	-3	-6	-3	-1.8	3302	4	-10
CC(/C=C/c1ccccc1)=N\Nc1nc(-c2ccccc2)cs1	/	/	/	/	24306*	-13	-1
O=C(CCN1C(=O)/C(=C/c2ccc(Cl)cc2)SC1=S)Nc1ccc(C(=O)O)cc1	-6	5	0	-0.6	3894	2	7
Cc1oc2cc3oc(=O)c(CCC(=O)N4C[C@H]5C[C@@H](C4)c4cccc(=O)n4C5)c(C)c3cc2c1C	12	/	/	5.2	4323	0	-5
COc1ccccc1CCN1CCCC(CN(C)C(=O)c2ccco2)C1 (stereo unspecified)	12	7	4	1.1	5482	-6	4
CC(C)CNC(=O)NC(=O)COC(=O)Cn1cnc2ccccc2c1=O	2	-4	4	4.9	3976	-33	23
COC(=O)CN1C(=S)N(c2ccc(OC)cc2)C(=O)/C1=C/c1ccc(N2CCOCC2)cc1	4	14	12	2.0	3586	-2	1
COc1ccc(CCNC(=O)C2CCN(S(=O)(=O)c3cccc4nsnc34)CC2)cc1OC	-1	/	/	-0.3	3606	-11	-5
NS(=O)(=O)c1ccc(CNC(=O)c2cccc(Oc3ccccc3)c2)cc1	10	-6	-2	1.4	3469	-6	10
CSCCC(NC(=O)c1ccccc1Cl)C(=O)Nc1ccc(C)c(S(=O)(=O)N2CCOCC2)c1 (stereo unspecified)	-2	-7	3	-0.2	6214	6	0
CCC1CC2CC(NC(C)=O)C1C2 (stereo unspecified)	0	/	/	-0.7	4217	-9	/
Cc1nn(Cc2ccc(F)cc2)c(C)c1NC(=O)CCCn1nc([N+](=O)[O-])cc1C	-5	-6	10	-2.5	4690	-14	5
CCC1(C)NC(=O)N(CC(=O)N2N=C(c3ccccc3)CC2c2ccc(OC)cc2)C1=O (stereo unspecified)	4	13	7	0.8	6866	-3	-8
O=C(CSc1nc2ccccc2c(=O)n1-c1ccccc1F)NC1CC1	-2	6	8	4.0	3798	-19	/
CC(N=C1NS(=O)(=O)c2ccccc21)c1ccccc1 (stereo unspecified)	6	/	/	-5.0	2887	-11	/
Cc1cc(N)n(-c2ccc(S(N)(=O)=O)cc2[N+](=O)[O-])n1	9	17	-1	2.7	4519	-6	2
COc1ccc(C=NNc2cc(C)nc(N3CCOCC3)n2)c(OC)c1	-3	6	3	1.3	/	/	/
CN1CCN(CCCN2c3ccccc3Sc3ccc(C(F)(F)F)cc32)CC1	2	26	22	-11	3940&2907&5397	-6&9&-5	10
O=C1CCCC2=C1C(c1ccc(O)c(Br)c1)C1=C(CCCC1=O)N2c1ccccc1	7	1	5	3.0	4644	-42	/
CCOC(=O)c1ccc(-n2c(CN3CCOCC3)nc3ccc([N+](=O)[O-])cc3c2=O)cc1	1	0	12	2.5	4313	-8	-11
CC1(C)C2CCC(C2)C1(C)NC(=O)CN1CCOCC1 (stereo unspecified)	0	/	/	9.3	3655	-19	/
Cc1[nH]n(-c2ccccc2)c(=O)c1CCOC(=O)c1ccc(C(F)(F)F)cc1	2	11	3	5.1	3443	-16	7
Cc1ccc(-n2ncc3c2CC(C)(C)CC3NC(=O)CCN2CCCO2)cc1 (stereo unspecified)	5	4	8	-0.3	4457	48	9
Oc1ccc2ccccc2c1CN1CCOCC1	7	-2	-8	4.0	4700	-8	9
Cc1cc(=O)oc2cc(OCC(=O)OCC(=O)N(CCC#N)c3ccccc3)ccc12	2	10	12	5.0	3944	-35	8
COc1ccc(Br)cc1C=NNC(=O)C[n+]1ccccc1	3	-1	4	2.0	/	/	/
O=C(CSc1ccc(Cl)cc1)NN=Cc1cccnc1	-1	9	14	8.4	/	/	/
Cc1ccc(C)c(NC(=O)[C@@H]2CCCN2S(=O)(=O)c2ccccc2F)c1	-3	10	5	4.1	8002	-23	/
Cc1ccc(CN(c2ccc(C(=O)N3CCOCC3)cc2)S(C)(=O)=O)cc1	-5	-1	1	0.0	2490	-5	-6
COc1cc(NC(=O)c2cnn3c(C)cc(C)nc23)c(OC)cc1Cl	-6	/	/	13	2608	-12	-3
O=C(CSC(=S)N1CCOCC1)c1cc(Br)cc(Br)c1O	8	15	3	1.8	3093	0	0
O=S(=O)(c1ccc(-c2ccon2)s1)N1CCN(c2ccncc2)CC1	6	7	2	3.3	/	/	-8
CC(=O)c1nc2ccccc2n1CCc1ccccc1	-6	-1	4	-0.2	4550	-7	2
CC(C)c1ccc(NC(=O)CSc2nnc(-c3ccccn3)n2C)cc1	3	2	6	-3.8	9510	-13	-1

Screening results: PubChem, several laboratories
